# Assay outcomes as filed in PubChem BioAssay.
# HSF-1 act: increases HSF-1 driven luciferase reporter signal; NIH3T3-HGL HSF-1 luciferase reporter, MG132, 8 h; 100% = twice DMSO control signal; activation, % at 9 µM; actives 1.7% (n = 300,000);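 active = mean replicate activation of at least 50% with a set share of replicates each reaching 50%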;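 note: 0% = median of the neutral control wells and 100% = twice that signal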
# GSK3 alpha inh: inhibitors of human GSK-3 alpha kinase; inhibition, % at 10 µM; ADP-Glo luminescence, 60 min; AID 2650; actives 0.1% (n = 320,000); P49840;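 in the data active = inhibition above about 50%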;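 note: GST-tagged GSK-3 alpha with peptide substrate and 25 µM ATP; 0% = DMSO neutral wells and 100% = GW8510 positive control wells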
# Target sequence (P49840 whole entry, looked up): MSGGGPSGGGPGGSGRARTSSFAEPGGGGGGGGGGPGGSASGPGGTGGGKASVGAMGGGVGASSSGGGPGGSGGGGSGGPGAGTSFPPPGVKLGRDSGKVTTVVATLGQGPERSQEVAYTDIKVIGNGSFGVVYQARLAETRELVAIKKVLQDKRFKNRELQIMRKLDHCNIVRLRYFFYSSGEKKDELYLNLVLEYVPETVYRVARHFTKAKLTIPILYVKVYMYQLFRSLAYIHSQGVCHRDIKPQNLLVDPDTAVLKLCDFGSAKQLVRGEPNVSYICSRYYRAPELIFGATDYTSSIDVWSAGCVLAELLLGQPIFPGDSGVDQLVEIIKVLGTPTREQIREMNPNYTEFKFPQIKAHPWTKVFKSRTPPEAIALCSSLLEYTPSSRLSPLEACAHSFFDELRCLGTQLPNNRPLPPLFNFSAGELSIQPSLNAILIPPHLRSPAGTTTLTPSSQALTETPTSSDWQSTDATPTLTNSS
# IEC-6 cytotox: kills IEC-6 intestinal cells in KLF5 counter-screen; actives 0.78% (n = 290,000); inhibition, % at 5 µM; IEC-6 cytotoxicity, luminescence viability; AID 1825; in the data active = inhibition above about 22%;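 note: 0% = plate median of test compound wells and 100% = cytotoxic reference compound wells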
# HSF1 inh: HSF1 inhibition; NIH3T3-HGL HSE-luciferase, MG132-induced, luminescence 8 h; stronger effect = lower value; AID 2098; actives 0.77% (n = 300,000); activity change, negative = inhibition, % at 7.5 µM (by protocol);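 active = more than half of replicate wells show activity change below -50%, luminescence cut by over half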;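 note: luciferase reports HSF-1 transcriptional activity via heat shock element; 0% = median of DMSO wells and -100% = zero luminescence signal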
# KLF5 inhibitor: suppresses KLF5 promoter-driven expression | actives 0.23% (n = 290,000) | inhibition, % at 5 µM | AID 1700 | DLD-1 KLF5 promoter-luciferase reporter, luminescence;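 active = inhibition above a per-plate limit of that plate's mean compound inhibition plus 3 SD, cut at about 60% in these data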;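 note: 0% = DMSO wells and 100% = LY294002 at 200 µM; higher means less KLF5 promoter-driven luciferase light; inactives centre near -14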
# GSK3B inh: blocks human GSK3beta kinase activity | P49841 | GST-GSK3beta kinase, ADP-Glo luminescence, 60 min; stronger effect = lower value | activity score (negative = inhibition), % at 10 µM | actives 0.038% (n = 300,000);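 active = more than half of replicate wells score below -50%, meaning over 50% inhibition versus plate controls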;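 note: 0% = median DMSO wells and -100% = median GW8510 positive control wells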
#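 test system = GST-tagged human GSK3beta kinase, cell-free | reagent = 25 µM ATP with peptide substrate | dosing = one dose of 10 µM per compound | schedule = 60 min reaction, RT | detection = luminescent ADP-Glo measurement of ADP formed | control set = DMSO neutral wells and GW8510 at 20 µM as positive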
# HSP90 inh: blocks HSP90-mediated luciferase refolding in reticulocyte lysate; inhibition, % at 5.6 µM; Rabbit reticulocyte lysate, luciferase refolding luminescence, 3 h; actives 0.91% (n = 290,000);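 active = inhibition above the screen-wide mean plus 3 SD, computed separately per campaign, cut at about 16% in these data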;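 note: 0% = DMSO wells and 100% = 60 µM geldanamycin wells; inhibitors lower the luminescence because luciferase stays unfolded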
# aSyn UTR inh: MLPCN primary screen, SNCA 5' untranslated region; AID 1813; alpha-synuclein 5'UTR reporter, inhibitor activity; actives 0.82% (n = 300,000); inhibition, % (tested at 7.5 µM); in the data active = inhibition above about 60%;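 note: H4 neuroglioblastoma cells stably carrying SNCA 5'UTR luciferase fusion; 0% = DMSO wells and 100% = positive control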
# AI-2 QS mod: modulators of Vibrio harveyi AI-2 quorum sensing system | Vibrio harveyi JMH597 AI-2 luminescence/OD600 ratio, 9 h; stronger effect = lower value; strain lacks LuxN and CqsS sensors; 0 = neutral-control median | activity change, % at 7.5 µM | actives 0.4% (n = 300,000); in the data active = activity change below about -75%, passing the limit was not always enough;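 note: luminescence divided by OD600 gain over 9 h not by final OD600 alone; inactives centre near 13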
# Starred values were filed as active, the others as inactive; · = not tested or not shown.
# Screens by letter – A = HSF-1 act; B = GSK3 alpha inh; C = IEC-6 cytotox; D = HSF1 inh; E = KLF5 inhibitor; F = GSK3B inh; G = HSP90 inh; H = aSyn UTR inh; I = AI-2 QS mod
1. CC(=O)OCC(=O)[C@@]1(O)[C@H](C)C[C@H]2[C@@H]3CCC4=CC(=O)C=C[C@]4(C)[C@@]3(F)[C@@H](O)C[C@@]21C
  A: -50	B: -6	C: 5	D: -42	E: -12	F: 5	G: 2	H: 9	I: 8
2. COc1ccc(C2=Nn3c(nnc3-c3ccccn3)SC2)cc1
  A: 9	B: 9	C: 3	D: -1	E: -8	F: 0	G: 3	H: 17	I: 44
3. C1CCCN(CCCCN2CCCCCC2)CC1
  A: -6	B: 1	C: -1	D: -9	E: -6	F: 1	G: 0	H: -2	I: 21
4. COc1cccc(N2CCN(c3ncnc4c3[nH]c3ccccc34)CC2C)c1 (stereo unspecified)
  A: -50	B: -1	C: -2	D: -50	E: -9	F: 1	G: -2	H: -73	I: 34
5. COc1c2occc2c(OC)c2c(=O)cc(C)oc12
  A: -9	B: 0	C: 1	D: -3	E: -1	F: -1	G: -2	H: 21	I: 19
6. CCOC(=O)c1c(C)[nH]sc1=S
  A: 19	B: ·	C: 2	D: -1	E: -15	F: 1	G: 5	H: -14	I: 15
7. CCCCc1[nH]c(=O)c(C#N)c2c1CSC(C)(C)C2
  A: 1	B: -3	C: 7	D: -1	E: 1	F: -7	G: 4	H: -16	I: 14
8. CCCNC(=O)OC[C@H]1O[C@H](CCO/N=C/C[C@@H]2C=C[C@H](OC(C)=O)[C@@H](COC(C)=O)O2)C=C[C@@H]1Oc1ccc(OC)cc1
  A: 20	B: -2	C: -3	D: 1	E: 3	F: -1	G: 1	H: -1	I: 33
9. CC1=CC(=O)C2=C(C)CC[C@@H]3[C@H](OC(=O)[C@H]3C)[C@@H]12
  A: 7	B: -3	C: ·	D: 4	E: ·	F: -3	G: ·	H: 4	I: 20
10. Cc1ccc(S(=O)(=O)N(CC(O)CN(C)C)c2ccccc2)cc1 (stereo unspecified)
  A: 6	B: -1	C: -4	D: -2	E: -14	F: -2	G: 0	H: -8	I: -3
11. COc1cc(CC(=O)O)ccc1O
  A: 21	B: -2	C: ·	D: 4	E: ·	F: -1	G: ·	H: -22	I: 2
12. N#C/C(=C\c1ccc(O)c(O)c1)C(=O)NCCCc1ccccc1
  A: 14	B: 10	C: 9	D: 7	E: 11	F: -6	G: 0	H: 10	I: 34
13. O=C(COc1ccccc1)Nc1ccc(-c2nnc(-c3ccco3)o2)cc1
  A: 35	B: -4	C: -7	D: 9	E: -27	F: 2	G: 2	H: -84	I: 27
14. COc1ccc(O[C@H]2C=C[C@@H](c3ccccc3)O[C@@H]2CO/N=C/C[C@@H]2C=C[C@H](OC(C)=O)[C@@H](COC(C)=O)O2)cc1
  A: -4	B: -1	C: -3	D: -1	E: 5	F: 1	G: 2	H: 12	I: 6

# Structures listed so far that have an aryl methoxy group:
# Screens by letter – A = HSF-1 act; B = GSK3 alpha inh; C = IEC-6 cytotox; D = HSF1 inh; E = KLF5 inhibitor; F = GSK3B inh; G = HSP90 inh; H = aSyn UTR inh; I = AI-2 QS mod
2. COc1ccc(C2=Nn3c(nnc3-c3ccccn3)SC2)cc1
  A: 9	B: 9	C: 3	D: -1	E: -8	F: 0	G: 3	H: 17	I: 44
4. COc1cccc(N2CCN(c3ncnc4c3[nH]c3ccccc34)CC2C)c1 (stereo unspecified)
  A: -50	B: -1	C: -2	D: -50	E: -9	F: 1	G: -2	H: -73	I: 34
5. COc1c2occc2c(OC)c2c(=O)cc(C)oc12
  A: -9	B: 0	C: 1	D: -3	E: -1	F: -1	G: -2	H: 21	I: 19
8. CCCNC(=O)OC[C@H]1O[C@H](CCO/N=C/C[C@@H]2C=C[C@H](OC(C)=O)[C@@H](COC(C)=O)O2)C=C[C@@H]1Oc1ccc(OC)cc1
  A: 20	B: -2	C: -3	D: 1	E: 3	F: -1	G: 1	H: -1	I: 33
11. COc1cc(CC(=O)O)ccc1O
  A: 21	B: -2	C: ·	D: 4	E: ·	F: -1	G: ·	H: -22	I: 2
14. COc1ccc(O[C@H]2C=C[C@@H](c3ccccc3)O[C@@H]2CO/N=C/C[C@@H]2C=C[C@H](OC(C)=O)[C@@H](COC(C)=O)O2)cc1
  A: -4	B: -1	C: -3	D: -1	E: 5	F: 1	G: 2	H: 12	I: 6

# Part of the list above in order of formula weight, lowest first:
# Screens by letter – A = HSF-1 act; B = GSK3 alpha inh; C = IEC-6 cytotox; D = HSF1 inh; E = KLF5 inhibitor; F = GSK3B inh; G = HSP90 inh; H = aSyn UTR inh; I = AI-2 QS mod
9. CC1=CC(=O)C2=C(C)CC[C@@H]3[C@H](OC(=O)[C@H]3C)[C@@H]12
  A: 7	B: -3	C: ·	D: 4	E: ·	F: -3	G: ·	H: 4	I: 20
2. COc1ccc(C2=Nn3c(nnc3-c3ccccn3)SC2)cc1
  A: 9	B: 9	C: 3	D: -1	E: -8	F: 0	G: 3	H: 17	I: 44
1. CC(=O)OCC(=O)[C@@]1(O)[C@H](C)C[C@H]2[C@@H]3CCC4=CC(=O)C=C[C@]4(C)[C@@]3(F)[C@@H](O)C[C@@]21C
  A: -50	B: -6	C: 5	D: -42	E: -12	F: 5	G: 2	H: 9	I: 8

# This is a subset, so the mix of outcomes need not match the whole.
